Assay outcomes deposited in PubChem BioAssay by Broad Institute.
AF4-AF9 inh: inhibitors of human MLL-AF4/AF9 interaction | P42568 | AlphaScreen, biotin-AF4 peptide binding to FLAG-AF9 | inhibition, % at 10 µM | hit rate 0.47% among 350,000 | AID 651704;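 active means every replicate reaching a set inhibition limit, whatever the replicate mean, cut at about 25% in these data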;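 further: 0% = plate neutral control median and 100% = total signal loss; the record names both 10 and 1 µM as test concentration; the first replicate is given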
Target sequence (P42568 whole entry, looked up): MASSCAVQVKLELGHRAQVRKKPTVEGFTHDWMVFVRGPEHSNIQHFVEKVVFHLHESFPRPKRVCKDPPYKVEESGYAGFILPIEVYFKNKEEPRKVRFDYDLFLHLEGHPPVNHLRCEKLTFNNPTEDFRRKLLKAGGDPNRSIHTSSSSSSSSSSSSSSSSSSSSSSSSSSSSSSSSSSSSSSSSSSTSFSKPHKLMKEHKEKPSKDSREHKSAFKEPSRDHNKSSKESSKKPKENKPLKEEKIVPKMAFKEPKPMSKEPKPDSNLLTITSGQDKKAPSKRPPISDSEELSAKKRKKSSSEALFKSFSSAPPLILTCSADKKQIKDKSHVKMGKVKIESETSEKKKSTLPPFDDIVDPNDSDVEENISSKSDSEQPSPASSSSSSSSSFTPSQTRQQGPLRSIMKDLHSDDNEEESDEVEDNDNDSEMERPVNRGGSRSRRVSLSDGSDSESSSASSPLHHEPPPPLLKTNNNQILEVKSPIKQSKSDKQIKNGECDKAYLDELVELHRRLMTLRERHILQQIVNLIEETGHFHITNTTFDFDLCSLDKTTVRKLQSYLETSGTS
Ecoli rRNA inh: inhibitors of bacterial rRNA selective over humanized ribosomes | E. coli WT GFP vs humanized-ribosome RFP mutants, fluorescence, 24 h; stronger effect = lower value; DMSO median 0, no signal -100 | GFP signal change (wild-type ribosome), % (test concentration not listed) | hit rate 1.6% among 350,000 | AID 720706;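 active means significant combined selectivity score with lowered wild-type GFP, culture density cut under 30%, mutant RFP and density less affected; inactive means any of these conditions unmet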; further: one replicate is shown; some compounds called inactive have numbers as strong as hits
FGF22 binding: FGF22 (human) thermal shift binding | Q9HCT0 | calls only at 9.99 µM | hit rate 1.5% among 340,000 | recombinant FGF22 thermal shift, SYPRO orange fluorescence; percent of sucrose octasulfate shift, DMSO zero;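 active means melting point raised past a set limit in the mean and every replicate; three in four hits are not shown here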
Target sequence (Q9HCT0 whole entry, looked up): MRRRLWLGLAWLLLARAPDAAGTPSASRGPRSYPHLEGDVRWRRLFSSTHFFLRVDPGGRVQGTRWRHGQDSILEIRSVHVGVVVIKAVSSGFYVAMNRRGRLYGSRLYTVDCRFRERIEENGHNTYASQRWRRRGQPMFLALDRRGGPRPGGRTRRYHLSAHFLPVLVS
Ecoli rRNA inh OD600: recorded beside Ecoli rRNA inh, whose call it bears; OD600 change, %; measured here: OD600 growth;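 optical density of the mix in the first replicate; 0 = DMSO median and -100 = no signal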
Ecoli rRNA inh RFP: second read-out of Ecoli rRNA inh, no call of its own (marks repeat the call); RFP signal change, %; measured here: RFP humanized mutant strains;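 first replicate; 0 = DMSO median and -100 = no signal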
Numbers without * were called inactive; i = inactive; + = active, no number; & = joins results of further samples.

FGF22 binding,AF4-AF9 inh,Ecoli rRNA inh OD600,Ecoli rRNA inh RFP,Ecoli rRNA inh,molecule
i,-3.0,1,0.3,-3,C[C@@H]1CN([C@H](C)CO)C(=O)c2c(c3ccccc3n2C)-c2ccccc2CO[C@@H]1CN(C)Cc1cccc(C(=O)O)c1
i,-3.9,1,-0.6,1,COCC(=O)N1C[C@@H](C)[C@H](OC)CN(C)C(=O)c2ccc(NC(=O)C3CCC3)cc2OC[C@H]1C
i,1.0,-4,0.7,0,C[C@@H]1CCCCO[C@@H](CN(C)S(=O)(=O)c2ccccc2)[C@@H](C)CN([C@H](C)CO)C(=O)c2cc(NS(=O)(=O)c3ccccc3)ccc2O1
i,9.3,8,4.4,5,Cn1cnc(CCNC(=O)C[C@@H]2CC[C@H]3[C@@H](COC[C@@H](O)CN3C(=O)C3CCCC3)O2)c1
i,7.0,2,0.7,1,Cc1cccc(S(=O)(=O)N(C)C[C@@H]2OCc3ccccc3-c3c(n(C)c4ccccc34)C(=O)N([C@H](C)CO)C[C@@H]2C)c1
i,0.5,-23,17,-10,O=C(C[C@H]1C[C@@H]2c3cc(NC(=O)NC4CCCC4)ccc3O[C@@H]2[C@@H](CO)O1)NCc1ccc(Oc2ccccc2)cc1
i,0.0,-7,0.2,0,C[C@@H]1CCCCO[C@H](CN(C)Cc2ccccc2)[C@@H](C)CN([C@H](C)CO)C(=O)c2cc(NC(=O)Nc3ccccc3)ccc2O1
+,-3.5,-46,1.6,-38,CCOc1ccc(/C=C2/SC(=S)N(C(C(=O)O)c3ccccc3)C2=O)cc1OCC (stereo not given)
i,-1.7,-9,-1.6,-1,CC(=O)N(C)C[C@@H]1Oc2cc(C#Cc3cccnc3)ccc2S(=O)(=O)N([C@@H](C)CO)C[C@H]1C
i,1.2,4,-2.1,0,Cc1ccc(S(=O)(=O)N(C)C[C@@H]2OCCCC[C@@H](C)Oc3ccc(NS(=O)(=O)c4ccccc4)cc3C(=O)N([C@H](C)CO)C[C@H]2C)cc1
i,11,10,3.5,2,O=C(C[C@@H]1CC[C@@H]2[C@H](COC[C@@H](O)CN2Cc2cccc(-c3ccncc3)c2)O1)N1CCN(c2ccccc2)CC1
i,-4.2,3,-1.6,-8,Cc1ccc(Nc2cc(Cl)nc(N)n2)c([N+](=O)[O-])c1
i,0.3,13,11,6,CC(C)(C)NC(=O)C(c1ccc(C#N)cc1)n1c(=O)c(-c2ccco2)nc2ccccc21 (stereo not given)
i,-1.6,6,-0.3,9,CO[C@H]1CN(C)C(=O)c2ccc(NC(=O)Cc3ccccc3)cc2OC[C@H](C)N(C(C)=O)C[C@H]1C
i,-2.0,5,-2.8,1,CO[C@H]1CN(C)C(=O)c2cc(NS(=O)(=O)c3cn(C)cn3)ccc2OC[C@@H](C)NC[C@H]1C
i,-1.4,6,-0.2,1,C[C@@H]1CN([C@@H](C)CO)C(=O)c2cccc(NC(=O)c3cnccn3)c2O[C@H]1CN(C)C(=O)Nc1ccc2c(c1)OCO2

Shown as a hit in FGF22 binding (from the list above):
FGF22 binding,AF4-AF9 inh,Ecoli rRNA inh OD600,Ecoli rRNA inh RFP,Ecoli rRNA inh,molecule
+,-3.5,-46,1.6,-38,CCOc1ccc(/C=C2/SC(=S)N(C(C(=O)O)c3ccccc3)C2=O)cc1OCC (stereo not given)

The results go on.
FGF22 binding,AF4-AF9 inh,Ecoli rRNA inh OD600,Ecoli rRNA inh RFP,Ecoli rRNA inh,molecule
i,0.3,-2,15,-9,COc1ccc2nc(NC(=O)C3CC(=O)N(c4ccc5c(c4)OCCO5)C3)sc2c1 (stereo not given)
i,-19,0,-0.1,1,CCOc1ccc(S(=O)(=O)N2CCOCC2)cc1NC(=O)CN1C(=O)NC(C)(c2ccc(C)cc2)C1=O (stereo not given)
i,1.4,-21,-10,-8,C[C@@]12C(=O)Nc3cc(F)c(F)cc3C(=O)N1[C@H]1c3ccccc3OC[C@@H]1[C@@H]2c1ccccc1
i,0.7,-5,0.9,1,O=C(c1cccc(F)c1)N1C[C@H]2[C@@H](c3ccccc31)[C@H](CO)N2C(=O)c1cccc(F)c1
i,-1.0,11,2.3,1,O=C(c1ccccn1)N1C[C@@H]2[C@H](c3ccccc31)[C@@H](CO)N2C(=O)Nc1ccccc1Cl
i,-2.6,3,0.0,2,CO[C@@H]1CN(C)C(=O)c2cc(NS(C)(=O)=O)ccc2OC[C@@H](C)N(S(C)(=O)=O)C[C@@H]1C
i,2.9,-11,0.6,-1,CC(C)NC(=O)Nc1cccc2c1O[C@H](CN(C)Cc1ccc(Oc3ccccc3)cc1)[C@H](C)CN([C@H](C)CO)C2=O
i,0.3,-4,-1.9,-1,Cc1ccccc1S(=O)(=O)NCC[C@@H]1CC[C@@H](NC(=O)C2CC2)[C@@H](CO)O1
i,-0.2,6,0.4,3,C[C@@H]1CN([C@@H](C)CO)C(=O)c2cc(NC(=O)C3CCCCC3)ccc2O[C@H]1CN(C)C
i,-1.6,5,-2.5,2,COCOCCn1cc(CN2CCS(=O)(=O)N(Cc3ccc(-c4ccc(Cl)cc4)cc3)C(CC(C)C)C2=O)nn1 (stereo not given)
i,-20,0,2.3,-3,CO[C@@H]1CN(C)C(=O)c2ccc(NC(=O)Nc3cccc(F)c3)cc2OC[C@@H](C)N(C(=O)Nc2c(C)noc2C)C[C@@H]1C
i,-1.3,-28,3.8,-25,CNC(=O)C[C@@H]1CC[C@H]2[C@@H](COc3ccc(NC(=O)c4ccccc4Cl)cc3C(=O)N2C)O1
i,-2.5,-49,3.4,-22,CC1(C(=O)NCc2ccc3c(c2)OCO3)CCN1C(=O)CCc1ccc(Cl)cc1Cl (stereo not given)
i,9.6,0,0.4,0,O=C(N[C@@H]1CC[C@H](CCNC(=O)C2CCCCC2)O[C@H]1CO)c1ccccn1
i,-2.0,16,1.5,6,CCNC(=O)[C@H]1[C@H](CO)[C@H]2Cn3c(ccc(-c4ccccc4)c3=O)[C@H]2N1C(=O)C1CCC1
i,-14,3,-0.9,-1,CO[C@H]1CN(C)C(=O)c2cc(NS(=O)(=O)CC(F)(F)F)ccc2OC[C@@H](C)N(Cc2ccccn2)C[C@H]1C
i,-3.8,6,-3.3,6,O=C1OCCOC2CCCc3oc(C4=CCCCC4)c1c32 (stereo not given)
i,-2.5,-14*,-0.4*,-28*,O=S(=O)(Cc1ccccc1)N1CCCCN2[C@@H](CO)[C@@H](c3ccc(-c4cccnc4)cc3)[C@@H]2C1
i,4.4&0.2,-6&6,3.7&0.4,-12&-4,CCS(=O)(=O)N(C)C[C@@H]1OCc2ccccc2-c2c(n(C)c3ccccc23)C(=O)N([C@H](C)CO)C[C@@H]1C
i,1.0,-10,-3.1,-8,CCCCC[C@H]1CCCCC[C@H](O)C[C@H](O)[C@@H](O)/C=C/C(=O)O1
i,-5.2,4,1.2,1,CN(Cc1ccccc1)C(=O)CN1CCN(S(=O)(=O)c2ccccc2F)CC1
i,0.1,12,-3.2,5,C[C@H](CO)N1C[C@H](C)[C@@H](CN(C)C)Oc2cc(C#CCN(C)C)ccc2S1(=O)=O
i,0.1,7,4.7,15,COc1ccc(C(=O)NC[C@H]2O[C@@H](n3cnc4c(N)ncnc43)[C@H](O)[C@@H]2O)cc1OC
i,-1.5,21,7.5,21,Cc1ccccc1C(=O)NCCN1CCC(n2c(=O)[nH]c3ccccc32)CC1

Not a retest: 2 of the compounds above.
FGF22 binding,AF4-AF9 inh,Ecoli rRNA inh OD600,Ecoli rRNA inh RFP,Ecoli rRNA inh,molecule
i,0.1,7,4.7,15,COc1ccc(C(=O)NC[C@H]2O[C@@H](n3cnc4c(N)ncnc43)[C@H](O)[C@@H]2O)cc1OC
i,-1.5,21,7.5,21,Cc1ccccc1C(=O)NCCN1CCC(n2c(=O)[nH]c3ccccc32)CC1

Next part.
FGF22 binding,AF4-AF9 inh,Ecoli rRNA inh OD600,Ecoli rRNA inh RFP,Ecoli rRNA inh,molecule
i,1.8,3,-0.8,0,CCCNC(=O)C[C@H]1CC[C@@H]2[C@@H](COc3ccc(NC(=O)C4CCCC4)cc3C(=O)N2C)O1
i,4.0,-34,6.9,-3,COC(=O)C[C@H]1CC[C@H]2[C@@H](COc3ccc(NC(=O)Nc4cccc(Cl)c4)cc3C(=O)N2C)O1
i,0.1,0,5.5,0,CCC(=O)N1CCC2(CC1)CN(C(=O)NC1CCCC1)[C@@H](CO)c1c2c2ccc(OC)cc2n1C
i,-0.5,9,-3.2,5,C[C@H]1CN([C@@H](C)CO)C(=O)c2cc(-c3cccc(F)c3)cnc2O[C@@H]1CN(C)CC1CCOCC1
i,-8.3,-6,3.3,-7,COc1cccc(C(=O)Nc2ccc3c(c2)OC[C@H](C)N(C(=O)C2CCCC2)C[C@@H](C)[C@@H](OC)CN(C)C3=O)c1
i,-2.0,-12,-2.6,-7,C[C@H]1CN([C@@H](C)CO)C(=O)c2cc(NC(=O)Nc3cccc4ccccc34)ccc2O[C@@H]1CN(C)C(=O)Nc1ccc2c(c1)OCO2
i,-0.5,-3,0.1,-2,CCS(=O)(=O)Nc1ccc2c(c1)C(=O)N(C)C[C@@H](OC)[C@H](C)CN(Cc1cccnc1)[C@H](C)CO2
i,0.3,-4,1.0,-6,COc1ccc(NC(=O)N[C@@H]2C=C[C@@H](CC(=O)NC3CCCCC3)O[C@@H]2CO)cc1

Entries shown so far that have a COOH group:
FGF22 binding,AF4-AF9 inh,Ecoli rRNA inh OD600,Ecoli rRNA inh RFP,Ecoli rRNA inh,molecule
i,-3.0,1,0.3,-3,C[C@@H]1CN([C@H](C)CO)C(=O)c2c(c3ccccc3n2C)-c2ccccc2CO[C@@H]1CN(C)Cc1cccc(C(=O)O)c1
+,-3.5,-46,1.6,-38,CCOc1ccc(/C=C2/SC(=S)N(C(C(=O)O)c3ccccc3)C2=O)cc1OCC (stereo not given)

Next part.
FGF22 binding,AF4-AF9 inh,Ecoli rRNA inh OD600,Ecoli rRNA inh RFP,Ecoli rRNA inh,molecule
i,-11,-1,1.9,-4,C[C@@H]1CCCCO[C@H](CN(C)C(=O)C2CCCCC2)[C@H](C)CN([C@@H](C)CO)C(=O)c2cc(NS(=O)(=O)c3cccs3)ccc2O1
i,-1.6,6,-4.8,3,CN(C)C(=O)c1ccc(-c2ccc3c(c2)[C@@H]2[C@@H](CCN2C(=O)c2cnccn2)[C@H](CO)N3)cc1
i,-2.4,13,-1.7,3,COc1cccc(CNC(=O)[C@@H]2CCCN2)c1
i,3.1,-47,8.3,-28,C[C@H](CO)N1C[C@H](C)[C@H](CN(C)S(=O)(=O)c2ccccc2)Oc2cc(Br)ccc2S1(=O)=O
i,-3.0,7,0.3,3,C[C@@H]1CCCCO[C@@H](CN(C)Cc2ccc(C(=O)O)cc2)[C@H](C)CN([C@@H](C)CO)C(=O)c2cc(NC(=O)Cc3ccccc3)ccc2O1
i,3.1,14,5.7,0,N#C[C@H]1N[C@@H](CO)[C@H]1c1ccc(C#CC2CCCCC2)cc1
i,0.1,1,2.2,1,C[C@H](CO)N1C[C@H](C)[C@H](CN(C)Cc2ccc3c(c2)OCO3)Oc2ccc(NS(=O)(=O)c3cccs3)cc2C1=O
i,-1.4,1,-0.8,-1,C[C@H](CO)N1C[C@H](C)[C@H](CN(C)C(=O)[C@H]2CCCN2C)OCc2ccccc2-c2ccccc2C1=O
i,-2.1,7,-0.5,8,CCCCn1c(N)c(N(Cc2ccccc2OC)C(=O)C(C)Oc2ccc(Br)cc2)c(=O)[nH]c1=O (stereo not given)
i,-2.9,-3,-2.5,2,Cc1cc(C(=O)Nc2cccc3c2O[C@H](CN(C)S(=O)(=O)c2ccc(F)cc2)[C@@H](C)CN([C@@H](C)CO)C3=O)n(C)n1
i,1.3,-17,-0.6,-2,COc1cccc(NC(=O)C[C@@H]2CC[C@@H]3[C@@H](COc4ccc(NC(C)=O)cc4C(=O)N3C)O2)c1
i,1.3,7,0.6,4,O=C(NC[C@H]1[C@@H](c2ccccc2)[C@H](CO)N1C(=O)Cc1cccnc1)C1CC1
i,-0.9,-14,5.4,-7,CO[C@H](CN(C)S(=O)(=O)c1cccc(Cl)c1)[C@H](C)CN(C(=O)Nc1ccccc1F)[C@@H](C)CO
i,5.4,-81,-20,-53,CCCc1nc2c3ccccc3ccn2c1CC(C)(C)C
i,-2.0,4,-0.2,-1,C[C@H](CO)N1C[C@H](C)[C@@H](CN(C)C(=O)CCC(F)(F)F)OCCCC[C@H](C)Oc2ccc(N(C)C)cc2C1=O
i,-3.8,10,-1.2,1,CCNC(=O)C1(C)CCCN(C(=O)c2cc3ccccc3s2)C1 (stereo not given)
i,-3.8,10,0.8,4,CC(C)NC(=O)C1(C)CCCN1C/C=C/c1ccccc1 (stereo not given)
i,1.7,-15,9.4,4,C[C@@H]1CN([C@H](C)CO)C(=O)c2cc(NC(=O)c3ccccc3)ccc2O[C@@H](C)CCCCO[C@@H]1CN(C)CC1CCCCC1
i,1.5,10,0.2,19,CC(C)C[C@H]1CNC(=S)N1CC1CCCN1C[C@H](CC(C)C)N1C[C@H](CC(C)C)N(CCc2ccccc2)C1=S (stereo not given in full)
i,-4.5,2,-1.3,0,CC(=O)N1[C@@H]2c3ccc(C4=CCCCC4)c(=O)n3C[C@H]1[C@H](CO)[C@H]2C(=O)N[C@H](C)c1ccccc1
i,-2.5,-38,-4.9,-24,Cc1cc(Cl)cc2sc(=S)[nH]c12

The list is partial; the hit share may differ from the screen's.
